YB-1 expr inh = inhibitors of YB-1 gene expression, primary screen, cell-based, fluorescence | U2OS, qRT-PCR YB-1 vs CDIP delta delta Cp, 16 h; stronger effect = higher value; zero = DMSO, each unit about twofold | delta delta Cp (YB-1 minus CDIP) (no concentration beside the values) | 30,000 tested, 0.37% active;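 active = delta delta Cp rounded down to an integer at or above 3, about 3 SD of DMSO wells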;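 also: higher means less YB-1 transcript or more CDIP transcript relative to DMSO; stock transfer was 100 nL into about 100 µL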
* hit, by the source's call. An excerpt (hit frequency here may not be typical).

SMILES	YB-1 expr inh
CC(C)OC(=O)N(C)C[C@@H]1OCc2cnnn2CCCC(=O)N([C@H](C)CO)C[C@H]1C	0.12
CC(C)(C)OC(=O)N1CCC[C@H]1/C=N/NC(=O)CCCCCC(=O)O	-0.27
COc1ccccc1CN1C(=O)c2ccccc2[C@](Cc2ccccc2I)(C(=O)NCCN2CCOCC2)[C@@H]1c1ccc(CO)cc1	-0.21
C[C@@H]1CN([C@H](C)CO)C(=O)CCCn2nncc2CO[C@@H]1CN(C)Cc1ccncc1	0.1
C[C@@H]1CN([C@@H](C)CO)C(=O)CCCn2nncc2CO[C@@H]1CN(C)CC1CC1	-0.062
C[C@H](CO)N1C[C@H](C)[C@H](CN(C)Cc2ccc3c(c2)OCCN3C)OCc2cnnn2CCCC1=O	0.32
C=CCNC(=O)[C@H]1[C@@H]2C(=O)O[C@@H](c3ccccc3)[C@@H](c3ccccc3)N2[C@@H](c2ccc(O)cc2)[C@]12C(=O)Nc1ccc(C#Cc3ccc(OC)cc3)cc12	-0.15
COc1ccc(-c2cnc3c(c2)C(=O)N([C@H](C)CO)C[C@H](C)[C@H](CN(C)S(C)(=O)=O)O3)cc1	0.24
O=C(CCCCCC(=O)Nc1ccccc1O)N/N=C/c1ccc2c(c1)CCO2	-0.09
C[C@@H]1CN([C@@H](C)CO)C(=O)CCCn2cc(nn2)CO[C@@H]1CN(C)C(=O)Nc1ccc(C(C)(C)C)cc1	-0.11
C[C@@H]1CN([C@H](C)CO)C(=O)CCCn2nncc2CO[C@H]1CN(C)C(=O)Nc1ccccc1C(F)(F)F	-0.1
CCOC(=O)N(C)C[C@@H]1OCc2cnnn2CCCC(=O)N([C@@H](C)CO)C[C@@H]1C	0.091
COc1ccc(C#Cc2cnc3c(c2)C(=O)N([C@H](C)CO)C[C@H](C)[C@H](CN(C)Cc2ccncc2)O3)cc1OC	-0.048
COc1cccc(S(=O)(=O)N(C)C[C@@H]2OCc3cn(nn3)CCCC(=O)N([C@@H](C)CO)C[C@@H]2C)c1	-0.74
C[C@H](CO)N1C[C@H](C)[C@@H](CN(C)C(=O)Nc2ccc(F)cc2)OCc2cnnn2CCCC1=O	0.0067
[N-]=[N+]=Nc1ccccc1C[C@@]1(C(=O)NCc2ccccc2)N=C(c2ccc(OCCCO)cc2)O[C@@H]1c1ccccc1	-0.63
COc1cc(/C=C/C=N/NC(=O)c2cccc(C(=O)NO)c2)ccc1O	0.17
O=C(CCCCCCC(=O)Nc1ccccc1O)N/N=C/c1ccc(F)c(Oc2ccccc2)c1	-0.29
Cc1cccc(CN(C)C[C@@H]2Oc3ncc(-c4cccc(C(F)(F)F)c4)cc3C(=O)N([C@H](C)CO)C[C@@H]2C)c1	-0.29
O=C(NO)c1ccc(C(=O)N/N=C/c2cccc(Br)c2)cc1	-1.1
C[C@@H]1CN([C@H](C)CO)C(=O)CCCn2cc(nn2)CO[C@H]1CN(C)Cc1ccc(Cl)c(Cl)c1	-0.36
C[C@H](CO)N1C[C@H](C)[C@H](CN(C)C(=O)Nc2ccc3c(c2)OCCO3)OCc2cn(nn2)CCCC1=O	0.14
CC(C)COC(=O)N(C)C[C@@H]1OCc2cnnn2CCCC(=O)N([C@@H](C)CO)C[C@@H]1C	-0.24
C[C@H]1CN([C@@H](C)CO)C(=O)CCCn2nncc2CO[C@H]1CN(C)Cc1ccc2c(c1)OCCN2C	-0.35
CC1(C)[C@H]2CC=C(/C=N\NC(=O)c3ccc(C(=O)NO)cc3)[C@@H]1C2	-0.2
C[C@@H]1CN([C@H](C)CO)C(=O)CCCn2nncc2CO[C@H]1CN(C)C(=O)CCC(F)(F)F	-0.17
COCCOC(=O)N1C(=O)[C@@]2(c3cc(C#CCC(C(=O)OC)C(=O)OC)ccc31)[C@H](C(=O)N1CCN(c3ncccn3)CC1)[C@H]1C(=O)O[C@H](c3ccccc3)[C@H](c3ccccc3)N1[C@@H]2c1ccc(O)cc1	-0.052
COC(=O)CCCCCCC(=O)N/N=C/c1cc(C)ccc1O	-0.061
C[C@H](CO)N1C[C@H](C)[C@@H](CN(C)Cc2ccc3c(c2)OCO3)OCc2cn(nn2)CCCC1=O	-0.25
O=C1O[C@H](c2ccccc2)[C@H](c2ccccc2)N2[C@H]1[C@@H](C(=O)O)[C@]1(C(=O)Nc3ccccc31)[C@H]2c1ccccc1OCCO	0.29
O=C1O[C@@H](c2ccccc2)[C@@H](c2ccccc2)N2[C@@H](c3ccccc3OCCO)[C@]3(C(=O)Nc4ccccc43)[C@@H](C(=O)NC[C@H](O)c3ccccc3)[C@H]12	-0.13
C[C@@H]1CN([C@@H](C)CO)C(=O)CCCn2nncc2CO[C@@H]1CN(C)Cc1ccc2c(c1)OCCN2C	0.34
COc1ccc(S(=O)(=O)N(C)C[C@@H]2Oc3ncc(-c4cccc(F)c4)cc3C(=O)N([C@H](C)CO)C[C@@H]2C)cc1	-11
COc1ccccc1S(=O)(=O)N(C)C[C@H]1OCc2cnnn2CCCC(=O)N([C@@H](C)CO)C[C@@H]1C	0.12
COc1cccc(S(=O)(=O)N(C)C[C@@H]2Oc3ncc(C#Cc4ccc(OC)c(OC)c4)cc3C(=O)N([C@H](C)CO)C[C@@H]2C)c1	-0.29
COc1ccc(C#Cc2ccc3c(c2)[C@]2(C(=O)N3)[C@H](c3ccc(OCCO)cc3)N3[C@H](c4ccccc4)[C@H](c4ccccc4)OC(=O)[C@H]3[C@@H]2C(=O)N2CCN(c3ncccn3)CC2)cc1	0.12
C[C@H](CO)N1C[C@H](C)[C@H](CN(C)S(=O)(=O)c2ccc(-c3ccccc3)cc2)OCc2cnnn2CCCC1=O	-0.27
O=C(O)CCCCCC(=O)N=NC=C1C=CN(O)C=C1	-0.24
C[C@H](CO)N1C[C@H](C)[C@@H](CN(C)C(=O)Nc2ccccc2F)OCc2cnnn2CCCC1=O	-0.48
COCCOC(=O)N1C(=O)[C@@]2(c3cc(C#CCCO)ccc31)[C@H](C(=O)N1CCN(c3ncccn3)CC1)[C@H]1C(=O)O[C@H](c3ccccc3)[C@H](c3ccccc3)N1[C@@H]2c1ccccc1OCCO	-0.46

A second format for some results above:
COc1cc(/C=C/C=N/NC(=O)c2cccc(C(=O)NO)c2)ccc1O
  YB-1 expr inh: 0.17
O=C(CCCCCCC(=O)Nc1ccccc1O)N/N=C/c1ccc(F)c(Oc2ccccc2)c1
  YB-1 expr inh: -0.29

Other entries follow:
SMILES	YB-1 expr inh
CC(C)=CCC[C@H](C)C/C=N/NC(=O)CCCCCCC(=O)O	0.17
C[C@H](CO)N1C[C@H](C)[C@@H](CN(C)C(=O)c2ccncc2)OCc2cn(nn2)CCCC1=O	0.26
C=C(C)[C@@H]1CC=C(/C=N/NC(=O)CCCCCC(=O)O)CC1	0.1
CCOC(=O)c1ccc(NC(=O)O[C@H]2[C@H](OC(=O)Nc3ccccc3)[C@@H](OC(=O)Nc3ccccc3)[C@@H](OC)O[C@@H]2CO)cc1	-0.35
C/C=C/[C@H](CC(=O)N1Cc2ccccc2C[C@H]1CO)[Si](C)(C)c1ccc(OC)cc1	0.29
COc1ccc(S(=O)(=O)N(C)C[C@H]2OCc3cnnn3CCCC(=O)N([C@H](C)CO)C[C@H]2C)cc1	-0.0092
CNC[C@H]1OCc2cn(nn2)CCCC(=O)N([C@@H](C)CO)C[C@H]1C	-0.092
O=C1O[C@@H](c2ccccc2)[C@@H](c2ccccc2)N2[C@@H](c3ccc(OCCO)cc3)[C@]3(C(=O)Nc4ccc(C#CCCO)cc43)[C@@H](C(=O)N3CCCCCCC3)[C@H]12	0.12
COc1ccccc1CN(C)C[C@H]1OCc2cnnn2CCCC(=O)N([C@@H](C)CO)C[C@H]1C	-0.41
C[C@H]1CN([C@@H](C)CO)C(=O)CCCn2nncc2CO[C@@H]1CN(C)C(=O)Nc1ccc(N2CCCCC2)cc1	-0.15
O=C(CCCCC(=O)N/N=C/c1ccc(O)c(O)c1O)NO	-0.49
C[C@@H]1CN([C@H](C)CO)C(=O)CCCn2nncc2CO[C@H]1CN(C)Cc1ccc(O)cc1	0.096
COCCOC(=O)N1C(=O)[C@@]2(c3cc(C#CCCO)ccc31)[C@H](c1ccc(O)cc1)N1[C@H](c3ccccc3)[C@H](c3ccccc3)OC(=O)[C@H]1[C@@H]2C(N)=O	0.048
C[C@@H]1CN([C@H](C)CO)C(=O)CCCn2nncc2CO[C@H]1CN(C)C(=O)NC1CCCCC1	0.19
CNC[C@@H]1OCc2cnnn2CCCC(=O)N([C@H](C)CO)C[C@H]1C	-0.15
COc1ccc(C#Cc2ccc3c(c2)[C@]2(C(=O)N3)[C@H](C(=O)NC[C@H](O)c3ccccc3)[C@H]3C(=O)O[C@H](c4ccccc4)[C@H](c4ccccc4)N3[C@@H]2c2ccc(O)cc2)cc1	0.09
Cc1ccccc1CN(C)C[C@H]1OCc2cnnn2CCCC(=O)N([C@@H](C)CO)C[C@@H]1C	-0.42
C=CCNC(=O)[C@H]1[C@@H]2C(=O)O[C@@H](c3ccccc3)[C@@H](c3ccccc3)N2[C@@H](c2ccccc2OCCO)[C@]12C(=O)Nc1ccc(C#CCCO)cc12	0.12
COc1ccc(S(=O)(=O)N(C)C[C@@H]2Oc3ncc(C#CCN(C)C)cc3C(=O)N([C@H](C)CO)C[C@@H]2C)cc1	0.007
O=C(O)CCCCCCC(=O)N/N=C/c1ccccc1[N+](=O)[O-]	0.14

Some of the entries so far, with values ahead of the structure:
YB-1 expr inh	structure
-0.15	C[C@H]1CN([C@@H](C)CO)C(=O)CCCn2nncc2CO[C@@H]1CN(C)C(=O)Nc1ccc(N2CCCCC2)cc1
-0.49	O=C(CCCCC(=O)N/N=C/c1ccc(O)c(O)c1O)NO
0.096	C[C@@H]1CN([C@H](C)CO)C(=O)CCCn2nncc2CO[C@H]1CN(C)Cc1ccc(O)cc1
0.048	COCCOC(=O)N1C(=O)[C@@]2(c3cc(C#CCCO)ccc31)[C@H](c1ccc(O)cc1)N1[C@H](c3ccccc3)[C@H](c3ccccc3)OC(=O)[C@H]1[C@@H]2C(N)=O

Looked up above.
For YB-1 expr inh, `C[C@H](CO)N1C[C@H](C)[C@H](CN(C)C(=O)Nc2ccc3c(c2)OCCO3)OCc2cn(nn2)CCCC1=O` shows 0.14
For YB-1 expr inh, `COc1ccc(C#Cc2cnc3c(c2)C(=O)N([C@H](C)CO)C[C@H](C)[C@H](CN(C)Cc2ccncc2)O3)cc1OC` shows -0.048

Later entries:
SMILES	YB-1 expr inh
O=C(CCCCCC(=O)Nc1ccccc1O)N/N=C/c1ccc2c(c1)OCCO2	-5.2
C[C@H](CO)N1C[C@H](C)[C@H](CN(C)Cc2ccc(Cl)c(Cl)c2)OCc2cn(nn2)CCCC1=O	-0.27
COc1cccc(CN(C)C[C@@H]2OCc3cnnn3CCCC(=O)N([C@@H](C)CO)C[C@H]2C)c1	-0.64
COc1cccc(CN(C)C[C@H]2OCc3cn(nn3)CCCC(=O)N([C@H](C)CO)C[C@H]2C)c1	0.073
COc1ccc(NC(=O)N(C)C[C@H]2OCc3cn(nn3)CCCC(=O)N([C@H](C)CO)C[C@@H]2C)cc1	-0.18
O=C(NN=C1CCCCCCC1)c1ccccn1	-0.078
COc1ccc(C#Cc2ccc3c(c2)[C@]2(C(=O)N3)[C@H](c3ccc(OCCO)cc3)N3[C@H](c4ccccc4)[C@H](c4ccccc4)OC(=O)[C@H]3[C@@H]2C(=O)N2CCCCCCC2)cc1	0.12
C[C@H](CO)N1C[C@H](C)[C@H](CN(C)S(=O)(=O)c2cn(C)cn2)OCc2cn(nn2)CCCC1=O	-0.094
C=CCOC(=O)[C@H]1[C@@H]2C(=O)O[C@@H](c3ccccc3)[C@@H](c3ccccc3)N2[C@@H](c2ccc(OCCOC(=O)[C@H]3C[C@H]4C(=O)N[C@@H](CCCCNC(C)=O)C(=O)N4[C@H]3c3ccc(O)cc3)cc2)[C@]12C(=O)Nc1ccccc12	0.011
COC(=O)CCCCCCC(=O)N/N=C/c1ccc(OC)c(Br)c1	0.092
O=C(O)C1=C[C@H](c2ccc3c(c2)Cc2ccccc2-3)C[C@H](OCCCCO)O1	-0.064
O=C(NO)c1cccc(C(=O)N/N=C/C(Br)=C/c2ccccc2)c1	0.16
C[C@H](CO)N1C[C@H](C)[C@H](CN(C)S(=O)(=O)c2ccc(C#N)cc2)Oc2ncc(/C=C/c3ccccc3)cc2C1=O	-0.54
O=C(CCCCC(=O)N/N=C/c1ccc(Oc2ccccc2)cc1)NO	-0.015
O=C(O)CCCCCC(=O)N/N=C/c1ccccn1	0.2
COc1ccc(C#Cc2ccc3c(c2)[C@]2(C(=O)N3)[C@H](c3ccc(OCCO)cc3)N3[C@H](c4ccccc4)[C@H](c4ccccc4)OC(=O)[C@H]3[C@@H]2C(=O)N2CCc3cc(OC)c(OC)cc3C2)cc1	0.19
NC(=O)[C@@H]1[C@H]2C(=O)O[C@H](c3ccccc3)[C@H](c3ccccc3)N2[C@H](c2ccc(O)cc2)[C@@]12C(=O)Nc1ccc(C#CC3=CCCCC3)cc12	0.27
CCOc1cccc(/C=N/NC(=O)c2ccccc2O)c1OCC	0.18
Cc1ccccc1S(=O)(=O)N(C)C[C@@H]1OCc2cn(nn2)CCCC(=O)N([C@H](C)CO)C[C@@H]1C	-0.42
C[C@@H]1CN([C@H](C)CO)C(=O)CCCn2nncc2CO[C@H]1CN(C)Cc1ccc(-c2ccccc2)cc1	0.14
C[C@H]1CN([C@@H](C)CO)C(=O)CCCn2nncc2CO[C@H]1CN(C)C(=O)Nc1ccccc1F	-0.15
C=CCN1C(=O)[C@]2(O[C@H](CCO)[C@@H]([Si](C)(C)c3ccc(OC)cc3)[C@@H]2C)c2ccccc21	-0.62
COC(=O)CCCCCCC(=O)N/N=C/c1cc(Br)cs1	0.37
C[C@H](CO)N1C[C@H](C)[C@H](CN(C)C(=O)NC2CCCCC2)Oc2ncc(C#Cc3ccc(F)cc3)cc2C1=O	0.28
